StopGo FLuc = Primary qHTS Assay for Foot and Mouth Disease Virus Antivirals against NCGC Sytravon and CBC Compound Libraries: Firefly Luciferase Signal. HEK cells with a luciferase reporter of 2A StopGo recoding. Potency, µM (titrated, usually from 57.5 µM), for the others: at the highest dose signal change, negative = less light. 0.23% of 120,000 active; active = well fitted falling curve with a large enough effect; inconclusive = small, poorly fitted or top-dose-only effect; inactive = no such curve, though single readings can be large or run the other way; further: nearly all actives have a fitted effect of over 60% in size; overnight with compound
StopGo RLuc = Primary qHTS Assay for Foot and Mouth Disease Virus Antivirals against NCGC Sytravon and CBC Compound Libraries: Renilla Luciferase Signal. HEK cells with a luciferase reporter of 2A StopGo recoding. Potency, µM (titrated, usually from 57.5 µM), for the others: at the highest dose signal change, negative = less light. 0.32% of 120,000 active. AID 1745857, 2022; active means well fitted falling curve with a large enough effect; inconclusive means small, poorly fitted or top-dose-only effect; inactive means no such curve, though single readings can be large or run the other way; further: nearly all actives have a fitted effect of over 55% in size; overnight with compound
* = called active by the depositor; u = inconclusive; & = joins results of further samples; [ ] = another dose, or the depositor's remark. On the % scale 0 is the no-effect control and ±100 the full control effect; potency means the concentration at half of the fitted maximal effect. Not a hit list; about 0.53% have a hit in one of these screens.

SMILES | StopGo FLuc | StopGo RLuc
COc1ccc(C(Nc2ncc(C(F)(F)F)cc2Cl)c2nccn2C)cc1 (stereo not given) | -14% | 4%
O=C(Cc1ccc2c(c1)CCCC2)NNC(=O)c1ccncc1 | -12% | -4%[1.06 µM]
COc1cccc(CNC(=O)Cn2ncn3nc(-c4cccs4)cc3c2=O)c1OC | -8% | -2%
Cc1cccc(-c2nc(C)c(CCNC(=O)C(=O)Nc3ccccc3C#N)s2)c1 | 4% | 1%
COc1ccc(S(=O)(=O)Nc2cc(S(=O)(=O)c3ccccc3)c(O)c(C)c2C)cc1 | -5% | 157%[activator]
O=c1oc2cc(O)ccc2cc1-c1nc(-c2ccc(Cl)cc2)cs1 | -8% | -14%
CCC1CCc2nc3sc(C(=O)Nc4ccc(C)cc4C)c(N)c3cc2C1 (stereo not given) | -44% | -21%
CC(C)NC(=O)c1ccc(-n2c(-c3ccccc3)cc3c2CCCC3)cc1 | 31% | -2%
COc1ccc(-n2c(SCc3ccccc3F)nc3c([nH]c4ccccc43)c2=O)cc1OC | 3% | -7%
CSc1ncc(C(=O)NCc2ccccc2Cl)c(C)n1 | -2% | 80%[activator]
COc1ccc(OC)c(/C=C/C(=O)OC2(C(F)(F)F)C(=O)Nc3c2ccc2ccccc32)c1 (stereo not given) | 9% | 30%[activator]
Cc1ccc(C)c(N2CCN(C(=O)NCc3noc4ccccc34)CC2)c1 | -1% | 67%[activator]
Cc1cccc(-n2nnnc2C(C)(C)NC2CCCCC2)c1 | 14% | 50%[activator]
N#Cc1nc(-c2ccccc2)[nH]c1C#N | 166%[activator] | 15%
COCCn1c(=N)c(C(=O)NC2CCCC2)cc2c(=O)n3cc(C)ccc3nc21 | -34% | -14%
COc1cc(C(=O)NCC(c2cccnc2)N2CCc3ccccc3C2)cc(OC)c1OC (stereo not given) | -13% | -7%
CC1=C(C(=O)OCCc2ccccc2)C(c2cccc(O)c2)C2=C(CCCC2=O)N1 (stereo not given) | 7% | 0%
CN(C)c1nc2c(c(=O)n(C)c(=O)n2C)n1CC(=O)c1ccccc1 | 7% | -7%
C/C(=N/NC(=S)NC(C)C)c1ccncc1 | 4% | 15%
Cc1ccc(C)c(Cn2c(=O)n(Cc3ccccc3)c(=O)c3sc4ccccc4c32)c1 | -14% | -7%
COc1ccc(N(Cc2cc3cc(OC)ccc3[nH]c2=O)S(C)(=O)=O)cc1 | 5% | 7%
CC(=O)N1CCN(c2ccc(NC(=O)COc3ccc(Cl)cc3C)cc2)CC1 | -4% | -10%
Cc1oc2cc(OCC(=O)N3CCCC3)ccc2c(=O)c1Oc1ccccc1 | -8% | 3%
CCOC(=O)C(N)C(O)c1ccccc1 (stereo not given) | -3% | 3%
Cc1cc(F)ccc1S(=O)(=O)NC(CN(C)C)c1ccccc1 (stereo not given) | 2% | 1%
COC(=O)c1cccc(NC2=NS(=O)(=O)c3ccccc32)c1 | 15% | 120%[activator]
COc1ccc(-c2nc3scc(CCNS(=O)(=O)c4ccc(Oc5ccccc5)cc4)n3n2)cc1 | -21% | 102%[activator]
Cc1ccc(-c2nc(SCC(=O)NCC3CCCO3)c3c(=O)n(C)c(=O)n(C)c3n2)cc1 (stereo not given) | -7% | -10%
CCCOc1ccc(CNC(=O)c2ccc(-n3c(C)cc4c3CCC(C)C4)cc2)cc1 (stereo not given) | 3% | 16%
COc1ccc(NS(=O)(=O)c2cnc(N)nc2)cc1Cl | -12% | 0%
COc1cccc(-n2cc(C(=O)NCc3cccc(Cl)c3)c3ccccc3c2=O)c1 | 0% | 27%
O=C(CCC(=O)OCC(=O)c1ccc([N+](=O)[O-])cc1)Nc1cc(C(F)(F)F)ccc1Cl | 6% | 1%
CCCCN(C)C(=O)Cn1cnc2sc(C)c(S(=O)(=O)N3CCC(C)CC3)c2c1=O | 0% | 78%[activator]
C/C=C/c1c(C)nc2sc(C#N)c(N)c2c1C | u | 25%
O=S(=O)(c1cccc(C(F)(F)F)c1)N1CCC(Oc2ccc(-n3cnnn3)cc2)CC1 | 11% | 26%
CC(C)(C)c1ccc(-c2nnc(SCC(=O)N3CCCC3=O)n2C2CCCC2)cc1 | 6% | -2%
Cc1cccc(NC(=O)c2sc3nc(N4CCOCC4)c4c(c3c2N)CC(C)(C)OC4)c1 | 239%[activator] | 5%
Cc1ccccc1NC(=O)c1ccccc1NC(=O)c1ccccc1F | -2% | -4%
Cc1cnc(NC(=O)CCc2ncc(-c3c(F)cccc3F)o2)s1 | 9% | -6%
Cc1ccc(OCc2nc3ccccc3n2CC(C)C)cc1 | 57%[activator] | 64%[activator]
C#CCN1CCN(CCOc2ccc(Cl)cc2)CC1 | 0% | -19%
CCc1nnc(NC(=O)Nc2ccc(Cl)cc2)s1 | 151%[activator] | 7%
Cc1ccc2oc(=O)c3cc(C(=O)N(Cc4ccccc4)C(C)C)sc3c2c1 | -11% | -5%
O=C(CSc1nc2ccccc2o1)Nc1nc(-c2ccccc2)cs1 | 25% | -5%
Cc1nc(-c2ccc(C)c(S(=O)(=O)N3CCC(C(=O)NCc4ccc(F)cc4)CC3)c2)no1 | 1% | -7%
Cc1ccc2c(COC(=O)c3cc(S(=O)(=O)N(C)C)ccc3N3CCCCC3)cc(=O)oc2c1 | 38%[activator] | 37%[activator]
Cc1ccc(C)c(CN2C(=O)c3ccccc3S(=O)c3ccc(C(=O)NCc4ccccc4Cl)cc32)c1 (stereo not given) | -11% | -1%
CCN(CC(=O)Nc1cccc(OC)c1)C(=O)Cc1nc(-c2ccccc2)oc1C | 10% | 23%
Cc1ccc(Cn2c(C)c3cnn(CC(=O)NCCc4ccc(Cl)cc4)c(=O)c3c2C)cc1 | 5% | -3%
O=C(O)c1ccccc1NS(=O)(=O)c1cc([N+](=O)[O-])ccc1N/N=C/c1ccsc1 | 23% | -8%[1.06 µM]
Next section.
SMILES | StopGo FLuc | StopGo RLuc
Cc1cccn2c(=O)c3cc(C(=O)NCc4ccccc4)c(=N)n(CCOCCO)c3nc12 | 13% | 71%[activator]
CCSc1ncc(Cl)c(C(=O)Nc2ccc(S(=O)(=O)Nc3nccc(C)n3)cc2)n1 | 18% | -26%
O=C(CCc1ccsc1)N1CCCC(C(F)(F)F)C1 (stereo not given) | 14% | 3%
Cc1cc(C(=O)CCC(=O)NC2CCCCC2)c(C)s1 | 16% | 3%
Cc1cccc(Nc2nnc(SCC(=O)N3CCOCC3)s2)c1C | 28% | -15%
CC(=O)c1ccc(/C=C/c2ccccc2)cc1 | 17% | 16%
O=S(=O)(c1ccc(Cl)cc1)c1nc(-c2ccco2)oc1SCc1ccc(F)cc1 | -21% | 103%[activator]
CN(C)c1ccc(CN(CC2CCCO2)C(=O)COc2ccc(Cl)cc2)cc1 (stereo not given) | -11% | 50%[activator]
CS(=O)(=O)c1cccc(C(=O)N2CCCN(C(=O)c3ccccc3)CC2)c1 | 3% | 3%
CCc1ccc(-n2nc(C)c3c(C)cc(=O)n(CC(=O)NCc4ccc(C)cc4)c32)cc1 | -5% | -3%
CCCc1cc(=O)oc2c(C)c(OCC(=O)NCCCn3ccnc3)ccc12 | -8% | -6%
Cc1cc(C)n2nc(SCC(=O)Nc3cc(Cl)ccc3C)nc2n1 | -3% | -8%
Cc1cccc(NC(=O)Nc2c[nH]c(=O)[nH]c2=O)c1 | 23% | -13%
CCN(c1ccccc1)S(=O)(=O)c1nnc(NC(=O)c2ccccc2OC)s1 | -9% | 39%[activator]
Cc1ccccc1-n1nnnc1SCc1nc(N)c2ccccc2n1 | 17% | -19%
CCC(=O)N1CCc2cc(S(=O)(=O)Nc3cc(C)ccc3OC)ccc21 | -27% | 100%[activator]
Cc1ccc2nc(SCc3nc(-c4cccc(Cl)c4)no3)[nH]c2c1 | 7% | 4%
N#Cc1ccc(-c2cccs2)nc1SCc1ccc(Br)cc1 | 14% | 22%
COc1ccccc1C(=O)NCC(c1ccc(N(C)C)cc1)N1CCc2ccccc21 (stereo not given) | 23% | -4%
O=C(OCC(=O)N1CCCCC1)c1ccc2c(c1)S(=O)(=O)c1ccccc1C2=O | -3% | 4%
N#Cc1c(N)sc2c1-c1ccccc1CC2 | 37%[activator] | 51%[activator]
CCc1ccc(CSc2nc(-c3ccccc3OC)nc3c2Cc2c(CO)cnc(C)c2O3)cc1 | -15% | -12%
C=CCOC(=O)c1c(C)[nH]c(C(=O)OCC)c1C | 132%[activator] | -10%[1.06 µM]
Cc1ccc(Nc2nc(COC(=O)c3ccc4c(c3)C(=O)N(c3ccccc3C)C4=O)cs2)cc1 | 0% | -14%
O=C(NCC(c1ccco1)S(=O)(=O)c1ccc(Cl)cc1)c1ccc2c(c1)OCO2 (stereo not given) | 19% | 17%
Clc1ccc(-c2nnn3c2nc(N2CCCCC2)c2ccccc23)cc1 | 70%[activator] | -4%
CCCc1cc(=O)oc2cc(C)cc(OC(C)C(=O)NCCCO)c12 (stereo not given) | -1% | -1%
Cc1ccc(C)c(N2CCN(S(=O)(=O)c3ccc(-c4cnc(C5CC5)o4)cc3)CC2)c1 | 31%[activator] | 39%[activator]
COc1ccc(-c2nc(-c3nonc3N)no2)cc1OC | 118%[activator] | 10%
O=C(CC1CCCC1)NCCC(=O)N1CCCC1 | 42%[activator] | 11%

Complete entries as entered above. Order of screens: StopGo FLuc	StopGo RLuc
`COc1cccc(-n2cc(C(=O)NCc3cccc(Cl)c3)c3ccccc3c2=O)c1` across the screens: 0%	27%
`Cc1ccccc1NC(=O)c1ccccc1NC(=O)c1ccccc1F` across the screens: -2%	-4%
`Cc1cc(F)ccc1S(=O)(=O)NC(CN(C)C)c1ccccc1` (stereo not given) across the screens: 2%	1%
`COc1ccc(-c2nc3scc(CCNS(=O)(=O)c4ccc(Oc5ccccc5)cc4)n3n2)cc1` across the screens: -21%	102%[activator]
`Cc1cnc(NC(=O)CCc2ncc(-c3c(F)cccc3F)o2)s1` across the screens: 9%	-6%

Other compounds
SMILES | StopGo FLuc | StopGo RLuc
Cc1ccc(N(C)S(=O)(=O)c2ccc3[nH]cc(C(=O)O)c(=O)c3c2)cc1C | -12% | -16%
CCOCCn1c(-n2nc(C)cc2C)nc2c1c(=O)n(CCOC)c(=O)n2C | -5% | -4%
CC(=O)c1ccc(N2CCN(C(=O)C3CCN(S(=O)(=O)c4c(C)noc4/C=C/c4ccccc4F)CC3)CC2)cc1 | -8% | 0%
COc1ccc(-c2cc(C(F)(F)F)nc(SCC(=O)N3CCC(C)CC3)n2)cc1 | -15% | -11%
CCN(Cc1cccc(F)c1)C(=O)C1CCCO1 (stereo not given) | 5% | 15%
COc1ccc2c(c1)c(C(C(=O)O)N1CCN(Cc3ccncc3)CC1)cn2CCC(=O)O (stereo not given) | -3% | -11%
O=C(CSc1nnc(-c2ccccc2)o1)c1cccc([N+](=O)[O-])c1 | 3% | -19%
Cc1cc(SCC(=O)N(CCC#N)c2ccc(F)cc2)nc2ccccc12 | -15% | -13%
CCCC(=O)Oc1ccc2c(=O)c(-c3ccccc3OC)coc2c1 | 43%[activator] | 2%
O=c1oc2cc(OCc3nn[nH]n3)ccc2cc1-c1ccc(F)cc1 | 39%[activator] | -17%
C=CCn1c(-n2nc(CC)cc2CC)nc2c1c(=O)[nH]c(=O)n2C | -15% | -6%
O=C(Nc1c(NCC2CCCCC2)c2ccccc2oc1=O)c1ccc2c(c1)OCO2 | -8% | -11%
O=C(COc1cc2oc(=O)cc(-c3ccccc3)c2cc1Cl)NCc1ccccn1 | 10% | 0%
CCCCn1c(CCC(=O)NC(C)c2cc(C)ccc2OC)nc2c1c(=O)[nH]c(=O)n2CCCC (stereo not given) | 0% | 28%
CSc1nnc(-c2cc(Br)ccc2NC(C)=O)c(=O)[nH]1 | -6% | -7%
COc1ccc(NC(=O)N2CCN(S(=O)(=O)c3ccc4c(c3)NC(=O)C(C)O4)CC2)cc1 (stereo not given) | 24% | 5%
O=C(OCC(=O)N1CCCC1)c1cn(-c2ccccc2)nc1-c1ccc(F)cc1 | 6% | 10%
Cc1ccc(Cn2nc(C)c(NC(=O)Nc3cccc(F)c3)c2C)cc1 | -13% | -3%
CN(CC(=O)Nc1ccccc1Cl)S(=O)(=O)c1ccc(C(=O)N2CCOCC2)s1 | -11% | -7%
CCOc1ccccc1NC(=O)CN1Cc2ccccc2C1=O | -13% | 48%[activator]

Part of the list above in another layout.
canonical_smiles	StopGo FLuc	StopGo RLuc
CSc1nnc(-c2cc(Br)ccc2NC(C)=O)c(=O)[nH]1	-6%	-7%
COc1ccc(NC(=O)N2CCN(S(=O)(=O)c3ccc4c(c3)NC(=O)C(C)O4)CC2)cc1 (stereo not given)	24%	5%
O=C(OCC(=O)N1CCCC1)c1cn(-c2ccccc2)nc1-c1ccc(F)cc1	6%	10%
Cc1ccc(Cn2nc(C)c(NC(=O)Nc3cccc(F)c3)c2C)cc1	-13%	-3%
CN(CC(=O)Nc1ccccc1Cl)S(=O)(=O)c1ccc(C(=O)N2CCOCC2)s1	-11%	-7%

(more compounds)
SMILES | StopGo FLuc | StopGo RLuc
CCOC(=O)c1ccc(N2C(=O)c3n[nH]c(C)c3C2c2ccc(OCC)cc2)cc1 (stereo not given) | -31% | 52%[activator]
COc1ccc(/C=N/OCc2cccc(Br)c2)cc1OC | 28% | 9%
CC(=O)N[C@@H](CCC(=O)O)C(=O)O | -20% | -13%
O=C(CSc1nccc(C(F)(F)F)n1)NC1CCCCCCC1 | 3% | 17%
CC(C)c1ccc(OC(=O)c2cc(-c3ccc4c(c3)OCCO4)on2)cc1 | 4% | -3%
Cn1c(=O)[nH]c(=O)c2c1nc(CN1CCN(c3ccccc3F)CC1)n2Cc1ccc(F)cc1 | 6%&-15% | 9%&-4%

High-throughput results (PubChem)
